NOMO-1 viab – NOMO-1 AML cell viability reduction, primary screen, STK33 inhibitor project, CellTiter-Glo luminescence; inhibition, % (test concentration not listed); NOMO-1 AML viability, 72 h; AID 2330, 2010; hit rate 7.5% among 37,000;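 active means most replicates above 80%; inconclusive means exactly half above 80%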;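 further: wells of about 30 µL received 25 nL stock; 0% = median of vehicle wells and 100% = reference inhibitor level; the first replicate is given; inactives centre near 10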
Active calls of the source: *. Some of the compounds tested (hit frequency here may not be typical).

For Cc1cc(I)ccc1NC(=O)Cn1cc([N+](=O)[O-])cn1 the results were NOMO-1 viab 19.
COc1cc(-c2nnc(SCC(N)=O)n2C)cc(OC)c1OC was read as NOMO-1 viab 8.
For O=C(CCCN1C(=O)c2ccccc2C1=O)Nc1ccc(Cl)cc1 the results were NOMO-1 viab 7.
COC(=O)c1ccccc1NC(=O)CSc1nc2ccc(C)cc2[nH]1 was read as NOMO-1 viab -27.
CCc1ccccc1NC(=O)CN(C)S(=O)(=O)c1ccc(Br)cc1 was read as NOMO-1 viab 4.
Screening C[C@H]1CN([C@@H](C)CO)C(=O)c2cccc(NC(=O)C3CCCCC3)c2O[C@H]1CN(C)Cc1ccc(C(F)(F)F)cc1 returned NOMO-1 viab 46.
Screening O=C(Cn1c(NCCO)nc2ccccc21)c1ccccc1 returned NOMO-1 viab 14.
Cc1noc(C)c1S(=O)(=O)Nc1ccc2c(c1)C(=O)N([C@H](C)CO)C[C@@H](C)[C@@H](CN(C)C(=O)Nc1ccccc1)O2 was read as NOMO-1 viab 7.
COc1cc2c(cc1NC(=O)CN(C)S(=O)(=O)c1ccc(C)cc1)oc1ccccc12 was read as NOMO-1 viab 53.
COc1ccc(-c2cc(=O)c3c(O)c(OC)c(O[C@@H]4O[C@H](CO)[C@@H](O)[C@H](O)[C@H]4O[C@@H]4O[C@@H](C)[C@H](O)[C@@H](O)[C@H]4O)cc3o2)cc1 was read as NOMO-1 viab 3.
COc1ccc(SCC(=O)Nc2ccccn2)cc1 was read as NOMO-1 viab 11.
Screening Cc1cccc(-n2c(N)cc(=O)nc2SCC(=O)Nc2ccc3ccccc3c2)c1 returned NOMO-1 viab 48.
Screening COc1ccc(S(=O)(=O)N(C)C[C@@H]2Oc3c(NS(=O)(=O)c4ccc(F)cc4)cccc3C(=O)N([C@@H](C)CO)C[C@H]2C)cc1 returned NOMO-1 viab 14.
`C[C@@H]1CN([C@@H](C)CO)C(=O)Cc2cc(NC(=O)Cc3cn(C)c4ccccc34)ccc2O[C@@H]1CN(C)Cc1ccc(C(=O)O)cc1` gave NOMO-1 viab 1.
Screening C[C@@H]1CN([C@H](C)CO)C(=O)Cc2cc(NC(=O)CCCCCC(=O)Nc3ccccc3N)ccc2O[C@H]1CN(C)S(C)(=O)=O returned NOMO-1 viab 11.
For Cc1noc(C)c1NC(=O)N(C)C[C@@H]1OCCCC[C@@H](C)Oc2ccc(NC(=O)Nc3ccc(F)cc3)cc2C(=O)N([C@H](C)CO)C[C@@H]1C the results were NOMO-1 viab -3.
Cc1c(/C=C/c2ccc(Cl)cc2Cl)c(=O)n(-c2ccccc2)n1C was read as NOMO-1 viab 38.
COc1ccc(S(=O)(=O)Nc2ccc3c(c2)C(=O)N([C@@H](C)CO)C[C@H](C)[C@@H](CN(C)Cc2ccc(-c4ccccc4)cc2)O3)cc1 was read as NOMO-1 viab 47.
Cc1ccc(S(=O)(=O)Nc2ccc3c(c2)CC(=O)N([C@H](C)CO)C[C@@H](C)[C@@H](CN(C)C(=O)Nc2cccc4ccccc24)O3)cc1 was read as NOMO-1 viab 17.
CC(=O)c1ccc(OC(=O)C(CCS(C)(=O)=O)N2C(=O)c3ccccc3C2=O)cc1 (centres undefined) was read as NOMO-1 viab 28.
`NCCCCCCNS(=O)(=O)c1cccc2ccccc12` gave NOMO-1 viab 84*.
CCc1cccc(OCC(=O)Nc2ccccc2C(N)=O)c1 was read as NOMO-1 viab 52.
For Cc1noc(C)c1NC(=O)N(C)C[C@H]1Oc2c(NC(=O)c3nc4ccccc4s3)cccc2C(=O)N([C@H](C)CO)C[C@H]1C the results were NOMO-1 viab 1.
C[C@@H]1CN([C@H](C)CO)C(=O)c2cccc(NC(=O)C3CC3)c2O[C@H]1CN(C)C(=O)Nc1ccc(F)cc1 was read as NOMO-1 viab -2.

Random excerpt: 2 entries already listed, in no set order.
Screening COc1ccc(S(=O)(=O)N(C)C[C@@H]2Oc3c(NS(=O)(=O)c4ccc(F)cc4)cccc3C(=O)N([C@@H](C)CO)C[C@H]2C)cc1 returned NOMO-1 viab 14.
CCc1cccc(OCC(=O)Nc2ccccc2C(N)=O)c1 was read as NOMO-1 viab 52.

Carrying on.
Screening NC(=O)CN1C(=O)C(O)(C2CCc3ccccc3C2=O)c2ccccc21 (centres undefined) returned NOMO-1 viab 15.
Screening C[C@H](CO)N1C[C@H](C)[C@@H](CN(C)C(=O)Nc2ccc(F)cc2)Oc2c(NC(=O)c3nc4ccccc4s3)cccc2C1=O returned NOMO-1 viab 17.
Screening COc1ccc(C2C(C#N)=C(N)Oc3n[nH]c(-c4ccccc4)c32)cc1CSc1ccccn1 (centres undefined) returned NOMO-1 viab 17.
Screening C[C@@H]1CN([C@H](C)CO)C(=O)Cc2cc(NC(=O)Nc3cccc4ccccc34)ccc2O[C@@H]1CN(C)Cc1ccc(Oc2ccccc2)cc1 returned NOMO-1 viab 111*.
`C[C@H]1CN([C@@H](C)CO)C(=O)c2cccc(NC(=O)Nc3ccc(F)cc3)c2O[C@H]1CN(C)C(=O)NC1CCCCC1` gave NOMO-1 viab 75.
`COc1ccc(S(=O)(=O)Nc2ccc3c(c2)CC(=O)N([C@@H](C)CO)C[C@@H](C)[C@@H](CN(C)Cc2ccc(-c4ccccc4)cc2)O3)cc1` gave NOMO-1 viab 62.
`COc1ccc(S(=O)(=O)N(C)C[C@H]2Oc3c(NC(=O)c4nc5ccccc5s4)cccc3C(=O)N([C@@H](C)CO)C[C@@H]2C)cc1` gave NOMO-1 viab 39.
Screening O=C1CC(c2ccccc2)N(c2ccc(Cl)cc2Cl)C(=S)N1 (centres undefined) returned NOMO-1 viab -8.
For O=C1CSCC(=O)N1c1cccnc1 the results were NOMO-1 viab -2.
`CC(C)NC(=O)Nc1ccc2c(c1)C(=O)N([C@@H](C)CO)C[C@@H](C)[C@@H](CN(C)Cc1ccc(Oc3ccccc3)cc1)O2` gave NOMO-1 viab 34.
For O=c1c(-c2cc(O)c(O)c(O)c2)coc2cc(O)c(O)c(O)c12 the results were NOMO-1 viab inconclusive.
CSc1nc(N)nc(SCC(=O)Nc2cccc(F)c2)c1C#N was read as NOMO-1 viab 64.

Molecules shown so far that have a Cl atom, in the order listed:
For O=C(CCCN1C(=O)c2ccccc2C1=O)Nc1ccc(Cl)cc1 the results were NOMO-1 viab 7.
Cc1c(/C=C/c2ccc(Cl)cc2Cl)c(=O)n(-c2ccccc2)n1C was read as NOMO-1 viab 38.
Screening O=C1CC(c2ccccc2)N(c2ccc(Cl)cc2Cl)C(=S)N1 (centres undefined) returned NOMO-1 viab -8.

Carrying on:
`COc1ccc([N+](=O)[O-])cc1NC(=O)COc1ccc(C(C)(C)C)cc1` gave NOMO-1 viab 12.
Screening O=C(CC(C(=O)O)N1CCCCC1)Nc1cccc(Cl)c1 (centres undefined) returned NOMO-1 viab -1.
For O=C(c1cccc(S(=O)(=O)N2CCOCC2)c1)N(Cc1ccccc1)c1ccccn1 the results were NOMO-1 viab -6.
Cc1ccc(S(=O)(=O)Nc2ccc3c(c2)C(=O)N([C@@H](C)CO)C[C@H](C)[C@H](CN(C)Cc2ccccc2)O3)cc1 was read as NOMO-1 viab 7.
O=C1OC(c2ccccc2)=N/C1=C\C=C\c1ccccc1 was read as NOMO-1 viab 21.
Cc1ccc(NC(=O)CC2Sc3ccc(C(F)(F)F)cc3NC2=O)c([N+](=O)[O-])c1 (centres undefined) was read as NOMO-1 viab 13.
For C[C@@H]1CN([C@@H](C)CO)C(=O)Cc2cc(NC(=O)CCN3CCOCC3)ccc2O[C@@H]1CN(C)C(=O)Nc1ccccc1 the results were NOMO-1 viab 0.
Screening COc1ccc(NC(=O)N(C)C[C@@H]2Oc3c(NC(=O)C4CCCCC4)cccc3C(=O)N([C@H](C)CO)C[C@H]2C)cc1 returned NOMO-1 viab 10.
Screening C[C@@H]1CN([C@H](C)CO)C(=O)c2cccc(NC(=O)Nc3ccc4c(c3)OCO4)c2O[C@@H]1CN(C)S(=O)(=O)c1ccc(Cl)cc1 returned NOMO-1 viab 57.
Screening Cc1ccc(S(=O)(=O)N(C)C[C@@H]2Oc3c(NC(=O)c4ccc(-c5nccs5)cc4)cccc3C(=O)N([C@H](C)CO)C[C@@H]2C)cc1 returned NOMO-1 viab 82*.
For Cc1ccc(N(C(C)C(=O)Nc2ccc3c(c2)OCCO3)S(C)(=O)=O)cc1 (centres undefined) the results were NOMO-1 viab 7.
For C[C@H]1CN([C@@H](C)CO)C(=O)c2cc(NS(=O)(=O)c3cccs3)ccc2O[C@@H]1CN(C)C(=O)NC1CCCCC1 the results were NOMO-1 viab -20.
For COc1ccc(C(=O)CSc2nnc(-c3ccccc3Cl)n2C)cc1OC the results were NOMO-1 viab 1.
`COc1ccc(NC(=O)CCn2nc(-c3ccccc3)c3ccccc3c2=O)cc1C(N)=O` gave NOMO-1 viab 51.
For C[C@H](CO)N1C[C@H](C)[C@H](CN(C)Cc2ccc(Cl)c(Cl)c2)Oc2ccc(NC(=O)Nc3cccc4ccccc34)cc2CC1=O the results were NOMO-1 viab 40.
`Cc1ccc(S(=O)(=O)Nc2ccc3c(c2)CC(=O)N([C@H](C)CO)C[C@H](C)[C@H](CN(C)C(=O)Nc2ccc(F)cc2)O3)cc1` gave NOMO-1 viab 27.
Screening C[C@H](CO)N1C[C@H](C)[C@@H](CN(C)Cc2ccc(Oc3ccccc3)cc2)Oc2ccc(NC(=O)NC3CCCCC3)cc2C1=O returned NOMO-1 viab 58.
For COC(=O)CC(O)(CCCC(C)(C)O)C(=O)O[C@@H]1C(OC)=C[C@]23CCCN2CCc2cc4c(cc2[C@@H]13)OCO4 (some centres undefined) the results were NOMO-1 viab 99*.
`C[C@H]1CN([C@@H](C)CO)C(=O)Cc2cc(NS(=O)(=O)c3ccccc3)ccc2O[C@@H]1CN(C)Cc1ccccc1` gave NOMO-1 viab 31.
Screening COc1ccc(C(=O)CSc2nc3cc(C)c(C)cc3[nH]2)cc1OC returned NOMO-1 viab -9.
C[C@@H]1CCCCO[C@H](CN(C)C(=O)C2CCCCC2)[C@@H](C)CN([C@H](C)CO)C(=O)c2cc(NS(=O)(=O)c3ccc(F)cc3)ccc2O1 was read as NOMO-1 viab 39.
Screening CC/C=C\[C@H](O)[C@H](O)C1=C(C)C(=O)[C@]2(O1)C(=O)N[C@@](OC)(C(=O)c1ccccc1)C2O (some centres undefined) returned NOMO-1 viab 2.
`COc1ccccc1NC(=O)CN(c1ccccc1)S(C)(=O)=O` gave NOMO-1 viab 8.
Screening Cc1noc(C)c1S(=O)(=O)Nc1ccc2c(c1)CC(=O)N([C@H](C)CO)C[C@H](C)[C@H](CN(C)S(=O)(=O)c1ccccc1)O2 returned NOMO-1 viab 22.

As a short view, part of the list above.
`C[C@H]1CN([C@@H](C)CO)C(=O)Cc2cc(NS(=O)(=O)c3ccccc3)ccc2O[C@@H]1CN(C)Cc1ccccc1` gave NOMO-1 viab 31.
Screening COc1ccc(C(=O)CSc2nc3cc(C)c(C)cc3[nH]2)cc1OC returned NOMO-1 viab -9.
C[C@@H]1CCCCO[C@H](CN(C)C(=O)C2CCCCC2)[C@@H](C)CN([C@H](C)CO)C(=O)c2cc(NS(=O)(=O)c3ccc(F)cc3)ccc2O1 was read as NOMO-1 viab 39.
Screening CC/C=C\[C@H](O)[C@H](O)C1=C(C)C(=O)[C@]2(O1)C(=O)N[C@@](OC)(C(=O)c1ccccc1)C2O (some centres undefined) returned NOMO-1 viab 2.
`COc1ccccc1NC(=O)CN(c1ccccc1)S(C)(=O)=O` gave NOMO-1 viab 8.
Screening Cc1noc(C)c1S(=O)(=O)Nc1ccc2c(c1)CC(=O)N([C@H](C)CO)C[C@H](C)[C@H](CN(C)S(=O)(=O)c1ccccc1)O2 returned NOMO-1 viab 22.

Other records:
COc1ccc(C(C)=O)cc1CSc1nnc(-c2cccc(Br)c2)n1-c1ccccc1 was read as NOMO-1 viab 29.
N#Cc1ccc(Oc2ccc(C(=O)OCc3cccc(C(=O)c4ccccc4)c3)cc2)cc1C#N was read as NOMO-1 viab 15.
`O=C1C(=O)N(CCCN2CCOCC2)C(c2ccc(F)cc2)C1C(=O)c1cc2ccccc2o1` (centres undefined) gave NOMO-1 viab 13.
`C[C@H](CO)N1C[C@H](C)[C@H](CN(C)S(=O)(=O)c2ccc(Cl)cc2)Oc2ccc(NC(=O)Cc3ccccc3)cc2CC1=O` gave NOMO-1 viab 16.
For COC(=O)/C=c1\sc2ncnn2c1=O the results were NOMO-1 viab 34.
Screening O=C(O)COc1ccc(Cl)cc1C1C2=C(CCCC2=O)NC2=C1C(=O)CCC2 returned NOMO-1 viab -9.
`O=C(NCC1CCCO1)c1ccc(Cl)c(S(=O)(=O)Nc2ccccc2)c1` (centres undefined) gave NOMO-1 viab -14.
`CC(C)NC(=O)Nc1ccc2c(c1)C(=O)N([C@H](C)CO)C[C@H](C)[C@H](CN(C)Cc1ccncc1)OCCCC[C@@H](C)O2` gave NOMO-1 viab 19.
Screening CC(C)NC(=O)Nc1cccc2c1O[C@H](CN(C)C(=O)Nc1cccc3ccccc13)[C@@H](C)CN([C@@H](C)CO)C2=O returned NOMO-1 viab 20.
Screening C[C@H](CO)N1C[C@H](C)[C@@H](CN(C)C(=O)Nc2cccc3ccccc23)Oc2c(NC(=O)c3ccncc3)cccc2C1=O returned NOMO-1 viab 16.
Screening Cc1ccc(S(=O)(=O)N(C)C[C@H]2Oc3c(NC(=O)C4CC4)cccc3C(=O)N([C@H](C)CO)C[C@H]2C)cc1 returned NOMO-1 viab 34.
Screening CNC[C@@H]1Oc2c(NS(=O)(=O)c3ccc(C)cc3)cccc2C(=O)N([C@H](C)CO)C[C@@H]1C returned NOMO-1 viab -12.
For COc1ccc(OC)c(NC(=O)COc2ccc3c4c(c(=O)oc3c2C)CCC4)c1 the results were NOMO-1 viab -12.
`C[C@H]1CN([C@@H](C)CO)C(=O)c2cccc(NS(=O)(=O)c3cccs3)c2O[C@H]1CN(C)S(=O)(=O)c1ccc(Cl)cc1` gave NOMO-1 viab 24.
Screening C[C@H]1CN([C@@H](C)CO)C(=O)c2cc(NS(=O)(=O)c3ccc(F)cc3)ccc2O[C@@H]1CN(C)Cc1ccccc1 returned NOMO-1 viab 2.
Screening C[C@H]1CN([C@@H](C)CO)C(=O)c2cc(NC(=O)CCCCCC(=O)Nc3ccccc3N)ccc2O[C@H]1CN(C)S(=O)(=O)c1ccccc1 returned NOMO-1 viab 15.

Compound activity from PubChem.
